JNK3 blocker: inhibitors of human JNK3 kinase | inhibition, % at 8 µM | 60,000 tested, 0.61% active | purified JNK3 kinase activity, HTS; in the data active means inhibition above about 17%;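 further: 0% = DMSO and 100% = reference inhibitor; many of its hits are not listed in these tables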
AP ELISA ortho: alternative pathway complement inhibition, orthogonal assay. Human serum alternative complement pathway, LPS-coated ELISA, C3 deposition; tested in compound mixtures. inhibition, % at 5 µM. 62,000 tested, 0.08% active. AID 1235;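 active means inhibition above 30% in each of the two pooled mixtures holding the compound, so the lower value exceeds 30%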;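 further: 0% = serum in Mg-EGTA without compound and 100% = EDTA serum blank; some compounds past the cut are filed as inactive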
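Assay system: human serum alternative complement pathway, C3 deposition on LPS-coated wells; Dosing: 5 µM per compound in ten-compound mixtures; Detection: Anti-C3 ELISA, OD 450 nm; Buffer or medium: Mg2+-EGTA GVB++ buffer containing human serum at 1:15 dilution; Timing: 1 h at 37 °C; Replication: two different pools per compound.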
E coli RNAP: inhibitors of Escherichia coli RNA polymerase | E. coli RNA polymerase, fluorescence transcription assay | inhibition, %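 (tested at 10 µM)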 | 62,000 tested, 0.2% active; in the data active means inhibition above about 20%;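 further: 0% = enzyme without compound and 100% = no enzyme blank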
Target sequence (P0A8V2 whole entry, looked up): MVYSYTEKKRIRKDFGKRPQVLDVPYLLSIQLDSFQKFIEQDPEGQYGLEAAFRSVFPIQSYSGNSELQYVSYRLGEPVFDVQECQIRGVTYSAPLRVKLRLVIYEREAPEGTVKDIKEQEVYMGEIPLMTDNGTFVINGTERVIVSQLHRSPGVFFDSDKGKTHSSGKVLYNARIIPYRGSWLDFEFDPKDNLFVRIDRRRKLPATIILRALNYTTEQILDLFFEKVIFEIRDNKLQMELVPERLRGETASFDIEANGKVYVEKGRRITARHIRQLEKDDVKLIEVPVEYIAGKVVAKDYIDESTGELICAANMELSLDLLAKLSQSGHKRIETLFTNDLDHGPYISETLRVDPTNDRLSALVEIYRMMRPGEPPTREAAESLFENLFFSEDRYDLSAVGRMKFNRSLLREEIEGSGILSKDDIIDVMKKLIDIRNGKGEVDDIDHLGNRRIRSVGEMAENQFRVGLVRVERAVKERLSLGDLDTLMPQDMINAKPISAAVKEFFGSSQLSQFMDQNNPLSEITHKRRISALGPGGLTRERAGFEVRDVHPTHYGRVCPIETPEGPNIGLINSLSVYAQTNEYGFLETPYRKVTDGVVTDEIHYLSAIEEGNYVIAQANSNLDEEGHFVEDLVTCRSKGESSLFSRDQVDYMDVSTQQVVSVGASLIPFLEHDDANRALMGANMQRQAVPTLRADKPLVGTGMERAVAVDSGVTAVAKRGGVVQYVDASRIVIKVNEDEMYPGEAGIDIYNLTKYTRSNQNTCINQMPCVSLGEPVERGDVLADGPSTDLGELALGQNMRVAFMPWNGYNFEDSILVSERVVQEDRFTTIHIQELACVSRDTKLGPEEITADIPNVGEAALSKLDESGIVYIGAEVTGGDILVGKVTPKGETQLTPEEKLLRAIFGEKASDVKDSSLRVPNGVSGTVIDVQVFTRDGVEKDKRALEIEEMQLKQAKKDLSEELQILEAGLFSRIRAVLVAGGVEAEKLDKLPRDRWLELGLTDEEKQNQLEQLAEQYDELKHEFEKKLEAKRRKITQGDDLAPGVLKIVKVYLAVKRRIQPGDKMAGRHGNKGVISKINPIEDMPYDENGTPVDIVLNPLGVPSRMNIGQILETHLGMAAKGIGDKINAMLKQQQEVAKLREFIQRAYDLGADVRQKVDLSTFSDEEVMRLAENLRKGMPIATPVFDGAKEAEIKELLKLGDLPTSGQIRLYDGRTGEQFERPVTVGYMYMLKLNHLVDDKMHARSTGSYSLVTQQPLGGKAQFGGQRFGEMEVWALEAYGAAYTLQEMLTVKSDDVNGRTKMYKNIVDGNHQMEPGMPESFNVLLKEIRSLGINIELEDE
CatB mixtures: inhibitors of human cathepsin B in compound mixtures; inhibition, %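 (ten-compound pools at 5 µM per compound and 50 µM total)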; AID 488; P07858; 62,000 tested, 0.06% active; Purified cathepsin B, AMC dipeptide fluorescence; in the data active means inhibition above about 22%, passing the limit was not always enough;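 further: 0% = enzyme without compound and 100% = no enzyme blank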
CatS inh: blocks human cathepsin S protease activity; inhibition, %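 (tested at 5 µM per compound within 10-compound mixtures)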; 62,000 tested, 0.06% active; recombinant cathepsin S, AMC dipeptide fluorescence, pooled mixtures; AID 501; P25774; in the data active means inhibition above about 32%, passing the limit was not always enough;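 further: 0% = enzyme without compound and 100% = blank without enzyme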
CatB block: human cathepsin B inhibition; purified cathepsin B, fluorogenic substrate, fluorescence; AID 453; inhibition, %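 (tested at 10 µM)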; 63,000 tested, 0.1% active; in the data active means inhibition above about 21%;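 further: 0% = enzyme with no compound and 100% = no enzyme blank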
RORa activator: activators of human nuclear receptor RORA; P35398; CHO-K1 Gal4-RORA LBD luciferase reporter, luminescence; percent increase over mock-subtracted basal signal; activation, % at 10 µM; 65,000 tested, 1.5% active;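 active means activation above the mean of all tested compounds plus 3 SD, cut at about 49% in these data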;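 further: 0% = DMSO-treated RORA cells and 100% = added signal equal to DMSO minus mock-transfected cells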
An asterisk follows results filed as active; / = no result given. This is a subset; rates above refer to the full screens.

Every second line gives: JNK3 blocker	AP ELISA ortho	E coli RNAP	CatB mixtures	CatS inh	CatB block	RORa activator
1) O=c1c2cccc3c2c(nn1CN1CCOCC1)-c1ccccc1-3
→ 5.1	14.0	1.6	3.1	-2.5	3.4	-35.4
2) CC(=O)Nc1ccc(Cc2ccncc2)cc1
→ -11.8	-1.3	7.3	3.2	6.8	3.3	-6.5
3) c1ccc2c(c1)ncn2Cc1nnc2sc(-c3ccc4c(c3)OCO4)nn12
→ -2.4	5.7	7.0	6.5	10.7	-1.2	-7.1
4) O=C(Cc1cccs1)Nc1ccon1
→ 3.1	-2.0	7.9	-5.4	7.8	1.7	-5.8
5) O=C(Nc1ccc(Cc2ccncc2)cc1)c1ccc(Br)o1
→ 4.7	6.3	-0.4	-2.2	-4.5	4.7	26.2
6) Cc1ccc(-n2c(C)nc3c(cnn3-c3ccc(F)cc3)c2=O)cc1
→ 2.1	-4.7	-2.0	-4.1	4.0	-4.1	5.1
7) COCCCNc1nc(-c2ccncc2)nc2ccccc12
→ -0.9	/	1.3	/	/	3.4	-8.8
8) O=c1c2[nH]c3ccccc3c2ncn1Cc1ccncc1
→ 13.8	7.1	0.3	-2.4	7.5	-1.0	9.4
9) O=c1c2[nH]c3ccccc3c2ncn1Cc1ccccn1
→ 3.9	11.5	4.1	-1.1	1.1	4.5	8.4
10) CCN1C(=O)N(C)C(N(O)C(=O)NC)C1(C)C (configuration not stated)
→ -4.6	8.6	5.8	-8.4	-15.7	-0.3	-14.3
11) c1ccc(Cc2nn3c(Cn4nnc5ccccc54)nnc3s2)cc1
→ -6.2	17.8	-0.3	-1.6	22.0	-1.2	10.4
12) COc1ccc2c(CC(=O)NCc3ccc4c(c3)OCO4)coc2c1
→ 0.6	14.9	4.0	5.7	3.9	-2.3	-5.4
13) O=C(Nc1ccccc1)N1C(=O)C2(OCCO2)c2ccccc21
→ 5.4	13.8	-2.3	0.3	18.1	1.6	8.1
14) COCCN(CCOC)S(=O)(=O)c1ccc(C(=O)NCCCN2CCOCC2)cc1
→ -2.1	3.4	/	-3.7	0.7	0.8	11.8
15) c1nc(NC2CCCC2)c2[nH]cnc2n1
→ 7.7	0.8	3.1	5.9	19.8	7.9	2.9
16) CC(Oc1ccc(Cl)cc1Cl)C(=O)Nc1ccncc1 (configuration not stated)
→ -1.4	-1.8	-2.8	0.9	-3.3	-1.5	4.8
17) CCN(CC)CCNC(=O)c1cn(C)c2ccc(S(=O)(=O)N(C)C3CCCCC3)cc2c1=O
→ 1.9	11.3	7.3	0.7	8.6	2.4	4.4
18) Cc1cccc(OCCSc2nnc(-c3ccoc3C)n2C)c1
→ -6.7	14.0	5.9	4.3	-3.0	3.8	-2.5
19) O=C(NC1CCCCC1)C1CCN(c2cnccn2)CC1
→ -11.0	16.6	1.4	0.8	5.0	4.9	-8.1
20) CCc1nc2oc3cc(OC)ccc3c(=O)c2c(=O)n1Cc1ccco1
→ 4.1	-8.9	/	4.0	12.4	4.9	12.4
21) OCCCc1nc2n(n1)C(c1ccccc1)C=C(c1ccccc1)N2 (configuration not stated)
→ 1.8	-0.9	3.2	-5.7	-0.6	-1.5	-15.3
22) O=S(=O)(c1ccc2oc(-c3ccncc3)nc2c1)c1ccc2oc(-c3ccncc3)nc2c1
→ -2.2	14.3	-1.8	3.3	-1.7	1.4	-21.5
23) CSc1nnc(NC(=O)c2ccc(C)c(S(=O)(=O)N3CCOCC3)c2)s1
→ -5.6	5.8	7.1	6.2	10.5	6.9	6.1
24) Cc1ccccc1NC(=O)c1ocnc1C
→ 8.3	12.1	4.5	0.7	15.7	-1.3	8.3
25) CCc1nc2n[nH]c(N)c2c2c1CCCC2
→ -4.3	/	1.7	/	/	-0.1	-16.4
26) CCCS(=O)(=O)N1CCN(C(=O)COc2ccc(-c3ccccc3)cc2)CC1
→ -11.9	16.0	4.2	1.8	-4.2	5.7	-5.4
27) c1ccc(-c2nn3c(Cn4nnc5ccccc54)nnc3s2)nc1
→ -2.6	-4.2	-3.9	4.0	4.8	0.9	-9.2
28) O=C(CSc1nnc(-c2cccnc2)o1)c1cc2ccccc2oc1=O
→ 1.4	3.4	5.1	0.7	-5.4	-0.4	-11.1
29) CCc1ccc(Cn2nnc(C(=O)NCc3ccccc3OC)c2N)cc1
→ 0.5	12.9	4.7	1.0	4.4	1.2	5.9
30) COCCNC(=O)c1cn(C)c2ccc(S(=O)(=O)N(C)C3CCCCC3)cc2c1=O
→ 8.1	8.3	5.7	1.0	2.5	-1.4	-2.1

Entries 1 through 2, reprinted for reference:
Every second line gives: JNK3 blocker	AP ELISA ortho	E coli RNAP	CatB mixtures	CatS inh	CatB block	RORa activator
1) O=c1c2cccc3c2c(nn1CN1CCOCC1)-c1ccccc1-3
→ 5.1	14.0	1.6	3.1	-2.5	3.4	-35.4
2) CC(=O)Nc1ccc(Cc2ccncc2)cc1
→ -11.8	-1.3	7.3	3.2	6.8	3.3	-6.5

The listing continues.
Every second line gives: JNK3 blocker	AP ELISA ortho	E coli RNAP	CatB mixtures	CatS inh	CatB block	RORa activator
31) CC(=O)N1CCc2cc(C(=O)CN3CCN(C(=O)c4ccco4)CC3)ccc21
→ -3.5	8.1	-2.5	1.6	43.1	3.1	17.1
32) O=C(Nc1nc(-c2ccco2)cs1)c1ccccc1
→ 9.9	7.7	10.4	4.6	7.4	3.3	12.5
33) COc1ccc(OC)c(C2=Nn3c(nnc3C3CCCCC3)SC2)c1
→ -5.6	3.6	7.7	0.0	14.5	0.7	-8.3
34) Cc1cc(=O)n(-c2ccc3ccccc3n2)[nH]1
→ 1.1	0.4	10.8	3.4	1.9	2.1	-20.4
35) CCC(=O)Nc1ccc(C(=O)n2nc(C)cc2C)cc1
→ 1.9	5.6	4.7	1.4	0.8	6.3	14.3
36) c1cncc(Nc2nc(-c3ccncc3)cs2)c1
→ 4.8	24.1	-0.3	4.5	-5.3	-4.6	16.7
37) C=CCn1c(SCC(=O)Nc2nccs2)nnc1-c1cc2cccc(OC)c2o1
→ -8.1	4.3	7.5	-3.3	0.3	2.1	-9.7
38) COC(=O)c1ccccc1S(=O)(=O)Nc1ccc2cn[nH]c2c1
→ -4.5	9.2	0.2	-3.5	7.6	-1.8	9.8
39) CC(C)c1cc(C(=O)N2CCN(C(c3ccccc3)c3ccccc3)CC2)no1
→ -8.7	4.2	-8.9	1.6	-7.2	3.3	0.3
40) COc1ccc(-c2nnc(SCC(=O)Nc3cc(F)ccc3C)o2)cc1
→ -1.4	18.3	3.7	0.2	17.2	-0.1	8.1
41) CCCCS(=O)(=O)NC1=NCN(Cc2ccco2)CN1
→ -1.2	15.9	4.8	5.4	2.3	-3.2	-20.1
42) CC(C)c1nnc(NC(=O)c2ccc(S(=O)(=O)N3CCOCC3)cc2)s1
→ -8.7	5.7	7.0	0.1	3.5	2.0	-24.0
43) COC(=O)CSC1=C(C#N)C(c2ccc(C)cc2)C2=C(CCCC2=O)N1 (configuration not stated)
→ 0.1	-0.7	1.2	2.4	21.0	8.7	-3.5
44) Clc1ccccc1-c1nn2c(Cn3cnc4ccccc43)nnc2s1
→ 0.1	5.0	8.9	4.7	17.0	1.9	-14.7
45) COc1ccccc1-c1nnc2n1N=C(C)CS2
→ 2.2	-1.1	4.2	-0.3	-7.8	-0.5	-18.0
46) CC1CC(C)CN(C(=O)CCCn2c(=S)[nH]c3ccccc3c2=O)C1 (configuration not stated)
→ 7.9	4.6	4.0	-0.2	2.9	-6.1	-17.9
47) COc1cccc2cc(-c3nnc(SCC(=O)Nc4cc(C(F)(F)F)ccc4Cl)n3N)oc12
→ -0.6	13.2	6.5	3.6	-0.4	5.3	-6.2
48) COc1cccc(-c2cc(C(=O)N3CCN(C(c4ccccc4)c4ccccc4)CC3)no2)c1
→ -6.2	5.3	4.7	-16.9	-6.4	4.7	-22.6
49) COc1ccc2cc3cc(C(=O)NCc4ccc5c(c4)OCO5)oc3nc2c1
→ -3.9	14.0	-9.3	-1.1	-3.0	-2.5	-4.0
50) CCC(=O)Nc1ccc(S(=O)(=O)Nc2cccc(C)c2)cc1OC
→ -4.6	-1.7	7.4	-5.3	5.0	-8.3	-3.4
51) C=CCSc1nnc(NC(=O)c2cccc(S(=O)(=O)N3CCOCC3)c2)s1
→ -0.5	1.8	4.0	4.9	3.2	0.7	-2.6
52) O=C(CCS(=O)(=O)Cc1ccccc1)Nc1nc2c(s1)CCCC2
→ -0.4	20.2	-2.0	4.8	5.0	6.2	-10.9
53) CC1(C)Oc2ccc3ccc(=O)oc3c2/C(=C/NCCO)C1=O
→ 1.2	11.5	7.4	6.2	9.7	-3.3	-6.6
54) COc1ccccc1NC(=O)NCCCN1CCN(c2cccc(Cl)c2)CC1
→ -2.9	-14.7	-13.4	2.5	4.1	-1.7	-19.2
55) CCCCC(=O)NCCNc1nc2c(c(=O)n(C)c(=O)n2C)n1Cc1ccc(F)cc1
→ 2.3	4.4	7.7	0.7	-4.8	-2.8	-9.7
56) CC1(C)CC(=O)C(C=Nc2ccc3cn[nH]c3c2)=C(O)C1
→ 2.3	2.5	6.1	2.2	12.3	5.9	-10.6
57) Nc1c(C(=O)NCc2ccccc2)nnn1Cc1ccc(F)cc1
→ 13.8	7.4	-1.5	-0.5	-4.5	-1.9	27.4
58) c1ccc(OCCSc2ncnc3nc[nH]c23)cc1
→ 7.5	10.0	6.0	-0.3	3.7	0.4	39.0
59) O=C(CCCCCN1C(=O)c2ccccc2C1=O)NC1CCCC1
→ 0.3	7.4	6.8	6.9	3.4	0.7	-15.1
60) COc1ccc(C(=O)Nc2cccc(-c3nc4ncccc4o3)c2C)cc1OC
→ 0.5	3.2	-2.9	9.2	13.0	9.3	-7.7

Sorted by value in AP ELISA ortho (ascending): some entries from above
no. | Structure | JNK3 blocker | AP ELISA ortho | E coli RNAP | CatB mixtures | CatS inh | CatB block
43 | COC(=O)CSC1=C(C#N)C(c2ccc(C)cc2)C2=C(CCCC2=O)N1 (configuration not stated) | 0.1 | -0.7 | 1.2 | 2.4 | 21.0 | 8.7
56 | CC1(C)CC(=O)C(C=Nc2ccc3cn[nH]c3c2)=C(O)C1 | 2.3 | 2.5 | 6.1 | 2.2 | 12.3 | 5.9
33 | COc1ccc(OC)c(C2=Nn3c(nnc3C3CCCCC3)SC2)c1 | -5.6 | 3.6 | 7.7 | 0.0 | 14.5 | 0.7
46 | CC1CC(C)CN(C(=O)CCCn2c(=S)[nH]c3ccccc3c2=O)C1 (configuration not stated) | 7.9 | 4.6 | 4.0 | -0.2 | 2.9 | -6.1
35 | CCC(=O)Nc1ccc(C(=O)n2nc(C)cc2C)cc1 | 1.9 | 5.6 | 4.7 | 1.4 | 0.8 | 6.3
38 | COC(=O)c1ccccc1S(=O)(=O)Nc1ccc2cn[nH]c2c1 | -4.5 | 9.2 | 0.2 | -3.5 | 7.6 | -1.8

Next structures.
Every second line gives: JNK3 blocker	AP ELISA ortho	E coli RNAP	CatB mixtures	CatS inh	CatB block	RORa activator
61) Oc1ccc(-c2csc(NCc3ccco3)n2)cc1
→ -9.2	2.7	10.8	5.0	-1.0	1.6	25.1
62) CCn1c(SCC(=O)Nc2cc(C)ccc2C)nnc1-c1cnccn1
→ 2.0	-6.6	0.1	-5.6	-6.7	-3.2	-23.7
63) CC(C)(C)c1ccc(C(=O)/C=C2\NC(=O)CS2)cc1
→ 4.0	-17.8	/	2.0	-1.0	1.4	15.2
64) Cc1[nH]nc(N=CC2=C(O)CC(C)(C)CC2=O)c1-c1ccc(Cl)cc1
→ 2.1	10.0	6.4	-1.3	-11.5	1.1	83.2*
65) CC1CNCCN1S(=O)(=O)c1cccc2cnccc12 (configuration not stated)
→ -2.1	10.6	8.7	4.9	-0.3	3.9	-15.3
66) O=C(OCn1nnc2ccccc2c1=O)c1ccc2c(=O)n3c(nc2c1)CCC3
→ 6.6	17.2	-0.6	6.1	-1.8	-0.6	-4.7
67) CCc1ccc(N(CC)c2ncnc3nc[nH]c23)cc1
→ -1.4	23.5	-1.8	0.5	-5.0	-0.9	-28.4
68) CCOC(=O)Cn1nnc(-c2ccc(SC)cc2)n1
→ 0.3	3.3	5.9	3.5	-4.4	3.9	-18.1
69) Brc1ccc(CSc2ncnc3nc[nH]c23)cc1
→ -4.1	6.8	7.7	-1.3	5.6	-2.5	16.4
70) COc1ccc(S(=O)(=O)N2CCN(C(=O)NC3CCCCC3)CC2)cc1OC
→ -3.0	4.4	12.1	-1.1	4.9	2.6	31.7
